# hNpr1 antagonist: human Npr1 receptor antagonism. 76,000 compounds, 1.6% hits. HEK293 hNpr1 GloSensor cGMP, ANP-stimulated luminescence. Potency, µM (top dose mostly 46.3 µM), for the others: at the top dose activity change, negative = inhibition, hits mostly inhibitors. AID 1347048; active = well fitted inhibition curve with a large enough effect; inconclusive = small, poorly fitted or top-dose-only effect; inactive = no such curve, though single readings can be large or run the other way;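 further: nearly all actives have a fitted effect of over 60% in size; nearly all hits also lower the signal before the agonist is added; a reference antagonist and vehicle were the controls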
# Target sequence (P16066 whole entry, looked up): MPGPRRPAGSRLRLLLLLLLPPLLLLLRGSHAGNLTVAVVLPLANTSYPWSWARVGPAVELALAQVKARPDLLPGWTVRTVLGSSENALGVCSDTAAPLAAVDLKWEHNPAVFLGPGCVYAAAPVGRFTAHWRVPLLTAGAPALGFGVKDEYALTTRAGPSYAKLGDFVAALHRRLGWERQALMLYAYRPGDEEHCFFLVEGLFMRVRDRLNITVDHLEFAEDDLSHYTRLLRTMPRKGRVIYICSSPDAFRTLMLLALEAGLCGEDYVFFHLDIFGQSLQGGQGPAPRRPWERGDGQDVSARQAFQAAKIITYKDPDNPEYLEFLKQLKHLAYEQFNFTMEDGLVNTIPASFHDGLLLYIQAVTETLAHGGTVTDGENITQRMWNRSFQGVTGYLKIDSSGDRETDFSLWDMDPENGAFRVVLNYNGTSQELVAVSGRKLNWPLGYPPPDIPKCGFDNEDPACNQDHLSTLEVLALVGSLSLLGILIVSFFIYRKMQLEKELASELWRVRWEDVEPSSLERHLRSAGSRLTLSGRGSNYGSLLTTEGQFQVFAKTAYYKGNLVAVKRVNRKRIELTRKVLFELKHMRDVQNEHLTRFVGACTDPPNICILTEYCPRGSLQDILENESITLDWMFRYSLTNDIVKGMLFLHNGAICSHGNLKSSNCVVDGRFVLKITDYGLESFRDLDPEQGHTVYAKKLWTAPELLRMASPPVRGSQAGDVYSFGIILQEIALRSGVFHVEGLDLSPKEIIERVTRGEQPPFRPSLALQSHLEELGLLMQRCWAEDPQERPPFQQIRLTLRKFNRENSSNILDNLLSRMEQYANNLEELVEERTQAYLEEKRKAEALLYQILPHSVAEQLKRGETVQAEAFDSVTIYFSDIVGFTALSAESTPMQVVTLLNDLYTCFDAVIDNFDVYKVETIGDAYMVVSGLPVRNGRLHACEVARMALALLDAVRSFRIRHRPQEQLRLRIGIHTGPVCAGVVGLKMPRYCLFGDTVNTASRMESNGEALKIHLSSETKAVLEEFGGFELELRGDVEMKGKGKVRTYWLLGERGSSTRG
#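 HEK293 cells stably expressing human Npr1 and cGMP GloSensor pGS-40F, loaded 2 h with 2% GloSensor reagent, given compound 30 min at room temperature. Luminescence read before and 20 min after 0.1 nM hNppA.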
# Active calls of the source: *; ? = inconclusive; [ ] = remark or other dose. On the % scale 0 is the no-effect control and ±100 the full control effect; potency means the concentration at half of the fitted maximal effect. This is a subset; rates above refer to the full screens.
SMILES,hNpr1 antagonist
COCC(=O)NC[C@H]1Cn2c(-c3ccc4c(c3)OCCO4)cnc2CO1,5%[70.6 µM]
CN1C[C@H](C(=O)N2CCN(c3ccccn3)CC2)C[C@H]1c1cccc(C(F)(F)F)c1,-28%[70.6 µM]
O=C1NC[C@@H](CCC(=O)N2CCOCC2)N2C[C@@H](NCc3ccc(F)cc3)C[C@@H]12,6%[70.6 µM]
CN(Cc1ccc(F)cc1)C(=O)c1ccc(F)cc1,0%[70.6 µM]
CNC(=O)CCn1ncc2cc(OCc3ccccc3-c3cc(F)ccc3OC(C)C)ccc21,-1%
Cc1ccc(-c2nocc2CCC(=O)N2CCN(c3ccccc3F)CC2)cc1,-21%
O=C(Cc1ccc(F)cc1)Nc1ccc(-c2nnc3n2CCCC3)cc1,4%
COc1ccc(CCNc2ncnc3c2CN(C2CCCC2)C(=O)CN3C)cc1,0%
COc1ccc(-c2cc(N3CCCC(NC(=O)Cc4ccccc4)C3)n[nH]2)cc1 (stereo not drawn),-15%
Cc1n[nH]c(C)c1CN1CCc2nn(C)c(=O)n2CC1,9%
OC(c1nc(Nc2ccc(Cl)c(C(F)(F)F)c2)n[nH]1)C1CC1 (stereo not drawn),?
Cc1ccc(-c2cc(O)c3c(c2)CNCCO3)s1,0%
Cc1cc(C)n(Cc2ccc(C(=O)N3CCCC(CO)CCNC(=O)CC3)o2)n1 (stereo not drawn),7%
CC(=O)N1CCN(C(=O)c2cccc(-c3ccco3)c2)CC(O)C1 (stereo not drawn),-4%
O=C(c1ccsc1)N1CC(n2cc(-c3ccccc3)nn2)C1,6%
CCN1C(=O)C2(CCN(S(=O)(=O)c3ccc(Cl)cc3C)CC2)c2ccccc21,-19%
Cc1cccc(Cl)c1NC(=O)CN1C(=O)NC2(CCC(C)CC2)C1=O (stereo not drawn),0%
Cc1noc([C@@H]2CC(F)(F)CN2C(=O)c2cc(C3CC3)[nH]n2)n1,5%
Cc1cc2nc3n(c(=O)c2n1CC(=O)N1CCCc2ccccc21)CCCC3,1%
O=C(Cn1ccn2nc3c(c2c1=O)CCCC3)NCc1ccc(F)cc1,3%
O=C1CCC(C(=O)N2CCc3ccc(S(=O)(=O)Nc4cccnc4)cc3C2)=NN1,0%
CCC(C)(C)C(=O)NC1CCN(C(=O)N2CC3CC(C2)[C@H]2CCCC(=O)N2C3)CC1 (stereo partly drawn),5%
CCCc1nc(CN(CC)C(=O)c2ccc(NC(=O)C3CCC3)cc2)no1,2%
COC(=O)[C@H](Cc1ccc(OC)cc1)NC(=O)[C@H]1CN(C(=O)c2ccc(N(C)C)cc2)CCN1C(=O)C1CCCCC1,0%
CS(=O)(=O)N1CCC(OC2CCN(C(=O)c3ccccc3Cl)CC2)CC1,3%
Cc1nc2c(C(=O)N3CCC(c4cc(CC(=O)O)[nH]n4)CC3)cccc2[nH]1,-1%
COc1ccccc1CC(=O)N1CCCc2ncc(C(=O)Nc3ccc4[nH]ccc4c3)cc21,-3%[70.6 µM]
COc1cccc(CN2CCn3c(nn(-c4ccncc4)c3=O)C2)c1,?
COc1ccccc1CN[C@H]1CC(C)(C)[C@@H]2C[C@@](C)(O)CC[C@]12CCC(=O)NCCc1c[nH]c2ccccc12,-14%
CCOc1ccc(C(=O)N[C@@H]2CN(C)C[C@H]2CN(C)C)cc1OCC,-2%

# Some of these compounds in order of molecular weight, lowest first.
SMILES,hNpr1 antagonist
Cc1nc2c(C(=O)N3CCC(c4cc(CC(=O)O)[nH]n4)CC3)cccc2[nH]1,-1%
O=C1CCC(C(=O)N2CCc3ccc(S(=O)(=O)Nc4cccnc4)cc3C2)=NN1,0%
COc1ccccc1CC(=O)N1CCCc2ncc(C(=O)Nc3ccc4[nH]ccc4c3)cc21,-3%[70.6 µM]
COc1ccccc1CN[C@H]1CC(C)(C)[C@@H]2C[C@@](C)(O)CC[C@]12CCC(=O)NCCc1c[nH]c2ccccc12,-14%

# The results go on:
SMILES,hNpr1 antagonist
O[C@@H]1C[C@@H](c2nc(-c3ccccn3)no2)N(Cc2cc3ccccc3o2)C1,5%[70.6 µM]
COc1ccc(CN2Cc3cc(NC(=O)c4ccccc4)ccc3OC(C)C2=O)cc1 (stereo not drawn),-15%
Cc1ccc(CC(=O)N2CCc3[nH]nc(C(=O)NCCCc4ccccc4)c3C2)cc1,-2%
CN(C)C[C@H]1C[C@@H](CO)CN(C(=O)c2csc(Cc3ccccc3)n2)C1,4%
CC(C)C(=O)NC1CCN(C(=O)N2CC3CC(C2)[C@H]2CCCC(=O)N2C3)CC1 (stereo partly drawn),4%
COc1cccc(-c2nnnn2[C@H]2CO[C@H]3[C@@H]2OC[C@@H]3NS(=O)(=O)c2cccs2)c1,5%
COCc1nc(-c2ccc(OC3CCN(S(=O)(=O)c4c(C)noc4C)C3)cc2)no1 (stereo not drawn),?
COc1ccc(NC(=O)N2C[C@@H](F)C[C@H]2C(=O)N2CCCCC2)cc1OC,3%
CCN(CC)c1ccc(CNC(=O)c2ccc3c(c2)n(C)c(=O)c2ccnn23)cc1,-5%
CC(C)N1CCOC[C@H]1c1ncc(-c2ccc(F)cc2)[nH]1,-2%[70.6 µM]
COC[C@@H]1CN(C(=O)CCc2ccccc2)C[C@H]1C(N)=O,-6%
Cc1ccc(C(=O)N2CCn3c(nn(-c4ccc([N+](=O)[O-])cc4)c3=O)C2)cc1,6%
O=C1[C@@H]2C[C@@H](CN2Cc2ccc(F)cc2)Oc2ccccc2N1CC1CC1,-5%[70.6 µM]
O=C(Nc1ccc(Cl)cc1)N1Cc2[nH]cnc2C[C@H]1c1nc(-c2ccc(OC(F)(F)F)cc2)no1,?
C[C@H]1[C@@H]2[C@@H](O)C([C@H](C)C(=O)NC3CCCCC3)CC[C@@]2(C)CC[C@@H]1NC(=O)c1cncnc1 (stereo partly drawn),1%
Cc1ccc(C(=O)N2CCc3nc(OCC4CC4)ccc3C2)cn1,3%
COc1ccc(-c2cccc(COc3cnc4c(ccn4CC(=O)O)c3)c2)c(C)c1,-11%[70.6 µM]
O=C(Nc1ccc(-c2nnc3n2CCCC3)cc1)c1ccncc1,2%
Cc1ccc(C(=O)N2CCC(Oc3ccc(C(=O)N(C)C)cn3)CC2)s1,-3%
CC(C)Cc1cc(CC2(NC3CCOCC3)COC2)no1,-3%[70.6 µM]
CC(C)NC(=O)C[C@@H]1C[C@H]2O[C@H](CNCc3ccccc3OC(F)(F)F)[C@@H](O)[C@H]2O1,2%[70.6 µM]
Cc1ccc(CNC(=O)c2cccc3c2CCN3C(=O)c2ccc(F)cc2)o1,-9%
CCN(CC)C(=O)N1CCOC(c2ccc3cc(OC)ccc3c2)C1 (stereo not drawn),11µM*
CCCc1noc(Cn2nc(-c3ccccc3)c3ccccc3c2=O)n1,1%
Cc1ccc(NC(=O)N2CC(c3nnc(-c4ccncc4)o3)C3(CCOCC3)C2)c(C)c1 (stereo not drawn),1%
CC1CCCN(c2ncnc3c2CN(c2cccnc2)C(=O)CN3C)C1 (stereo not drawn),9%
O=C(CC1CCCN(c2cn[nH]c(=O)c2)C1)Nc1cccc(Cl)c1 (stereo not drawn),-3%
COCCn1ncc(N2CCCC(CC(=O)Nc3cc(C)ccc3OC)C2)cc1=O (stereo not drawn),-28%
Cc1ccc(C2Cn3nnc(C(=O)Nc4ccc(F)c(Cl)c4)c3CO2)cc1 (stereo not drawn),?
O=C(O)c1ccc(CN2CCC(Cc3cccc(C(=O)O)c3)C2)cc1 (stereo not drawn),0%
COc1cccc(CC(=O)N2CCC3(CC2)OC(=O)N(Cc2ccccc2F)C3(C)c2ccccc2)c1 (stereo not drawn),-4%
O=C(c1ccc2nccnc2c1)N1CCC2(CC1)Nc1ccccc1NC2=O,4%
Cc1cnn(CCC(=O)N2C[C@@H](CO)[C@H](c3ccccn3)C2)c1,3%
CS(=O)(=O)N(C1CCOCC1)C1CNC1,0%
COc1ccc(OCC(=O)N2CCN(c3cc(-c4ccccc4)[nH]n3)CC2)cc1,-1%
CN(CC1CCOCC1)C(=O)NCCc1ccccc1,1%
Cc1ccccc1CCC1CCCN(C(=O)CCc2cnccn2)C1 (stereo not drawn),-7%
Cc1n[nH]c(C)c1CCC(=O)N1CCC(c2nn(C)c(=O)n2C2CCCC2)CC1,3%
CCOc1ccc(C(=O)N2CCN(c3cc(-c4ccc(F)cc4)[nH]n3)CC2)cc1OCC,?
O=C(NC1CCCc2c1[nH]c1c(Cl)cccc21)c1ccccn1 (stereo not drawn),0%
CN(C)C[C@@H]1CN(Cc2ccccn2)C[C@H]1NC(=O)c1cc(F)ccc1Cl,-2%
O=C(Nc1ccc2c(N3CCCC3)ncnc2c1)c1c(F)cccc1F,-11%
COc1cccc(CN2Cc3cc(NC(=O)Cc4cccs4)ccc3OC(C)C2=O)c1OC (stereo not drawn),-6%
COc1ccc(-c2nccc3c(=O)cc(N(C)c4ccccc4)oc23)cn1,2%[70.6 µM]
COc1cccc(-c2cc3c(=O)n(CCNC(=O)c4nn(C)c5ccccc45)ccn3n2)c1,-21%
CN1CCN(Cc2nc(C3(O)CCN(C(=O)Nc4ccc(F)cc4)CC3)cs2)CC1,5%[70.6 µM]
COc1cccc(CN2C(=O)CCCCC2C(=O)NC2CCS(=O)(=O)C2)c1 (stereo not drawn),0%
CCCS(=O)(=O)N1C[C@@H](Oc2cccnc2)C[C@@H]1C(=O)NCCOC,-1%
CC(=O)N1CCC(Cc2noc(C3CC3)n2)C1 (stereo not drawn),-4%
CC(=O)N[C@H]1C[C@@H](Cc2cc(CN(C)c3ccccc3)on2)C1(C)C,-14%[70.6 µM]
# Remaining list, next part:
SMILES,hNpr1 antagonist
C[C@@H]1C(=O)O[C@H]2[C@H]1CC[C@@]1(C)Cc3sc(NC(=O)CCC(=O)O)nc3[C@@H](C)[C@H]21,-17%[70.6 µM]
O=C(NCc1ccccc1Cl)c1cc2n(n1)CC(c1ccc(Cl)cc1)OC2 (stereo not drawn),?
Cc1cc(C(=O)N2CCCCCC2c2nnc(C)o2)n(C)n1 (stereo not drawn),0%
CN(C)C[C@@H]1CN(C)C[C@H]1NC(=O)c1ccc(F)cc1F,-1%
CCO[C@H]1CN(C(=O)CSc2ccc(Cl)cc2)C[C@@H]1O,2%
COC[C@H]1CCCN1c1nc(CCN)nc2sc(C)c(C)c12,3%
Cc1ncsc1CN1C[C@@H](NC(=O)c2cccnc2)C[C@H]1CO,-2%
CN(C)C(=O)c1n[nH]c2c1CN(C(=O)c1ccccc1Br)CC2,-1%
COc1ccccc1NC(=O)N1CCc2cc(OC)c(OC)cc2C1CNC(=O)c1ccco1 (stereo not drawn),-11%
Cc1onc(-c2ccccc2)c1C(=O)N1CCCC2(CCOC2)C1 (stereo not drawn),3%
Cn1ncc(N2CCC(C(=O)NCc3cc(F)ccc3F)C2)cc1=O (stereo not drawn),4%
CC(C)(C)c1ccnc(N[C@H]2CO[C@H]3[C@@H]2OC[C@@H]3NC(=O)c2cccs2)n1,?
CCC(CC)n1c(=O)n(CCC(N)=O)c2cc(C(=O)O)cnc21,6%
COc1cc(OC)c(NC(=O)Cn2ccn3nc4c(c3c2=O)CCCC4)cc1Cl,-2%
O=C(Nc1ccc(F)cc1F)C1CN(S(=O)(=O)c2cccnc2)CC12CCCCC2 (stereo not drawn),4%
COc1cccc(C(=O)NC2CCN(c3cn[nH]c(=O)c3)CC2)c1,9%
COc1cc(F)ccc1-c1nc(-c2c(C)noc2C)cc2c1cc(C)n2C,4%[70.6 µM]
Cc1cnc(C(=O)N[C@@H]2CCC[C@@H]2C(=O)Nc2cccc(C(C)C)c2)cn1,-1%
Cc1nnc(-c2cc(-c3ccccc3Oc3ccccc3)ccn2)n1C1CCN(C)CC1,-11%[70.6 µM]
Cc1noc2c(NCCc3ccccn3)cc(-c3cccnc3)nc12,3%[70.6 µM]
C[C@@H](NC(=O)c1ccccn1)c1onc(-c2ccc(Cl)cc2)c1C(=O)O,-1%[70.6 µM]
O=C(C1CN(c2ccc(Cl)cc2)C(=O)N1)N1CCN(Cc2ccccc2)CC1 (stereo not drawn),0%
Cc1cc(C(=O)N2CCC(c3nccn3Cc3ccncc3)CC2)c(C)o1,3%
O=C(Cc1c[nH]c2ncc(-c3ccccc3)cc12)N1CCN(c2ccccn2)CC1,?
CN1Cc2nc(NCc3ccccc3)ccc2OCC1=O,?
CCCc1noc(-c2cccn3c(CNC(=O)C4CCCC4)nnc23)n1,0%
COC(=O)c1ccc(CN2C(=O)[C@@H]3C[C@@H](O)CN3C3(CN(Cc4ccc(C(F)(F)F)cc4)C3)C2=O)cc1,?
Cc1ccc(C(=O)N2CCCc3nc(C)nc(-c4ccc(O)cc4)c3C2)cc1,-1%
Cc1cn2nnc(C(=O)NCCCc3ccccc3)c2c(=O)[nH]1,3%
COCC(=O)N1CCCC(c2noc(COC)n2)C1 (stereo not drawn),0%
Cc1ccc(Cl)cc1NC(=O)Cn1ccn2nc3c(c2c1=O)CCCCC3,-5%
N#Cc1cccc(CN2CCC(c3nc4ccc(F)cc4c(=O)[nH]3)CC2)c1,1%

# In the list so far, these have a furan ring, fused or not.
SMILES,hNpr1 antagonist
Cc1cc(C)n(Cc2ccc(C(=O)N3CCCC(CO)CCNC(=O)CC3)o2)n1 (stereo not drawn),7%
CC(=O)N1CCN(C(=O)c2cccc(-c3ccco3)c2)CC(O)C1 (stereo not drawn),-4%
O[C@@H]1C[C@@H](c2nc(-c3ccccn3)no2)N(Cc2cc3ccccc3o2)C1,5%[70.6 µM]
Cc1ccc(CNC(=O)c2cccc3c2CCN3C(=O)c2ccc(F)cc2)o1,-9%
COc1ccccc1NC(=O)N1CCc2cc(OC)c(OC)cc2C1CNC(=O)c1ccco1 (stereo not drawn),-11%
Cc1cc(C(=O)N2CCC(c3nccn3Cc3ccncc3)CC2)c(C)o1,3%

# Compound activity (PubChem BioAssay)
